Screening results from PubChem.
GIRK2 act: activators of human GIRK2 potassium channels | HEK293-GIRK2 thallium flux, Thallos fluorescence | calls only for hits at 25 µM | 63,000 compounds, 0.05% hits | AID 1259325, 2017;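 active = among the strongest 0.2% of first-round signals and kept after retests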;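 also: first round at about 10 µM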
Target sequence (P48051 whole entry, looked up): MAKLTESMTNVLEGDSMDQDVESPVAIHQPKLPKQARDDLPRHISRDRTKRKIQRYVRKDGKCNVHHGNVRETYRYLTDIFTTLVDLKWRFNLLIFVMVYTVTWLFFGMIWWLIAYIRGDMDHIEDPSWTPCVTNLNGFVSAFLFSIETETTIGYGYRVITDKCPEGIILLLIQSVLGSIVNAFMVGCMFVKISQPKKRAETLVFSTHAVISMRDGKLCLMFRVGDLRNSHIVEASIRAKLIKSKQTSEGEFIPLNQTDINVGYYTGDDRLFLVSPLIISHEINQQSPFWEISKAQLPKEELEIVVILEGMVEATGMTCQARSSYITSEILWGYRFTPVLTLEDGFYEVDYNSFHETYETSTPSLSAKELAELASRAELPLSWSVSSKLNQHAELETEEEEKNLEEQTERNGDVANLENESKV
Calls only; i = inactive. An excerpt; rates above refer to the full screens.

structure | GIRK2 act
Cc1c(Cl)ccc2sc(N(CC3CCCO3)C(=O)c3ccc(Cl)s3)nc12 (centres undefined) | i
CC(=O)Nc1ccc(S(=O)(=O)Nc2ccc3c(c2)N(C(=O)c2ccccc2)CCC3)cc1 | i
COC(=O)CSc1nc2c([nH]1)c(=O)n(C)c(=O)n2C | i
O=C(/C=C/c1ccco1)N1CCC(c2nnc(-c3ccco3)o2)CC1 | i
COc1ccccc1N1CCN(C(=O)Cn2cnc3c(sc4ccccc43)c2=O)CC1 | i
COc1ccc(-c2nn3c(N4CCN(C)CC4)cc(C)nc3c2C)cc1OC | i
O=C(NC1(c2nc(C3CC3)no2)CCCCC1)c1ccccc1Br | i
Cc1csc(SCC2CCN(C(=O)c3ccccc3Cl)CC2)n1 | i
CC(C(=O)Nc1ccccc1C(N)=O)n1nc(-c2ccccc2)ccc1=O (centres undefined) | i
COc1cccc(C(=O)NCC2CCN(C(=O)c3ccoc3)CC2)c1 | i
COc1cc(NC(=O)Nc2ccc3c(c2)C(=O)N(C)c2ccccc2O3)cc(OC)c1OC | i
COc1cc(NC(=O)Cn2nc3c(SC4CCCCC4)nccn3c2=O)cc(OC)c1 | i
Cc1nnsc1C(=O)NCC1CCC(c2nc3ccccc3n2C)CC1 (centres undefined) | i
CCOc1ccc(NC(=O)CN2N=NC3C(=O)N(c4ccc(OC)c(Cl)c4)C(=O)C32)cc1 (centres undefined) | i
O=C(c1cccc(F)c1)N1CCN(S(=O)(=O)c2cc3c4c(c2)CCC(=O)N4CCC3)CC1 | i
O=C(NCCn1nc(C2CC2)n(-c2ccccc2)c1=O)c1ccsc1 | i
COCCCn1c(-c2ccc(Cl)cc2)nc2oc3cc(OC)ccc3c(=O)c2c1=O | i
Cc1oc(-c2ccccc2)nc1CN(c1ccccc1)S(=O)(=O)c1ccccc1 | i
O=C(Nc1c(F)cccc1F)N1CC(c2nc(-c3cccc(Cl)c3)no2)C1 | i
COc1ccccc1N1CCN(c2nnc(SCC(=O)Nc3ccc(F)cc3F)s2)CC1 | i
O=C(NCC1CCCO1)C1CCN(c2ncccc2-c2nc(-c3ccccc3)no2)CC1 (centres undefined) | i
COCCn1c(=O)c2c(nc3n2CCCN3c2cccc(C)c2C)n(C)c1=O | i
CCOCC(=O)N1CCN(Cc2nc3ccccc3[nH]2)CC1 | i
O=C(Cc1c[nH]c2ccccc12)Nc1ccccc1-c1ccc(=O)[nH]n1 | i
CCN(CC)C(=O)Oc1ccc2c(c1C)O/C(=C\c1ccc3c(c1)OCO3)C2=O | i
COC(=O)C1=C(C)N(Cc2ccccc2)C(=O)NC1c1cccc(OCc2ccccc2)c1 (centres undefined) | i
O=C(NCCC(O)c1ccc2c(c1)OCO2)C(=O)Nc1ccccc1Cl (centres undefined) | i
CC(C)COc1ccc(N2CCn3c2nc2c3c(=O)n(C)c(=O)n2C)cc1 | i
CCN(CC)c1ccc(-c2noc(CN3CCC(C(N)=O)CC3)n2)cn1 | i
O=C(Nc1nc2c(s1)COCC2)c1cncc(Br)c1 | i
O=C(Cc1cc(-c2cc3ccccc3o2)on1)NCCc1c[nH]c2ccccc12 | i
CCS(=O)(=O)NCC(Cc1cccc(F)c1)N1CCNC1=O (centres undefined) | i
CC(NS(=O)(=O)c1cccc(Cl)c1)C(=O)O (centres undefined) | i
Cn1c(=O)c2c(nc(N3CCCCC3)n2CC(O)COc2ccc(Cl)cc2Cl)n(C)c1=O (centres undefined) | i
NC(=O)C1CCN(CC(=O)Nc2oc3ccccc3c(=O)c2-c2ccccc2)CC1 | i
CC(=O)Nc1ccc(S(=O)(=O)N2CCCC(c3nnc(-c4cccs4)o3)C2)cc1 (centres undefined) | i

Some of these compounds in order of formula weight, ascending.
structure | GIRK2 act
CC(NS(=O)(=O)c1cccc(Cl)c1)C(=O)O (centres undefined) | i
CCN(CC)c1ccc(-c2noc(CN3CCC(C(N)=O)CC3)n2)cn1 | i
CC(C)COc1ccc(N2CCn3c2nc2c3c(=O)n(C)c(=O)n2C)cc1 | i
O=C(NCCC(O)c1ccc2c(c1)OCO2)C(=O)Nc1ccccc1Cl (centres undefined) | i
O=C(Cc1cc(-c2cc3ccccc3o2)on1)NCCc1c[nH]c2ccccc12 | i
CCN(CC)C(=O)Oc1ccc2c(c1C)O/C(=C\c1ccc3c(c1)OCO3)C2=O | i
COC(=O)C1=C(C)N(Cc2ccccc2)C(=O)NC1c1cccc(OCc2ccccc2)c1 (centres undefined) | i

New compounds follow
structure | GIRK2 act
COc1ccc(S(=O)(=O)N2CCC(Cn3ccnc3-c3ccccc3)CC2)cc1C | i
O=C(Cn1nc(C(=O)N2CCOCC2)cc1-c1cccs1)Nc1nccs1 | i
CN1CCN(C(=S)c2ccc(Br)cc2)CC1 | i
O=C(CN1C(=O)CCC1=O)NCC1(c2ccc(F)cc2)CC1 | i
CONC(=O)c1nnn(-c2ccc(Cl)cc2)n1 | i
Cc1cccc(-n2c(=O)c3c(c4cc(C)ccc4n3C)n(CC(=O)Nc3c(C)cc(C)cc3C)c2=O)c1 | i
Cc1cc(C)c(C#N)c(SCC(=O)Nc2nsc(-c3ccc(Cl)cc3)n2)n1 | i
O=C1NC(c2ccc3c(c2)OCO3)C(C(=O)c2ccccc2)C(O)(C(F)(F)F)N1 (centres undefined) | i
CCOc1ccccc1NC(=O)Nc1cnc(-n2ccnc2C)nc1 | i
Cc1ccc(-n2c(C)cn3c4c(=O)n(CC(N)=O)c(=O)n(C)c4nc23)cc1Cl | i
CCOc1ccc(N(C)S(=O)(=O)c2ccsc2C(=O)NCc2ccccc2Cl)cc1 | i
COc1ccccc1N1CCN(CCNS(=O)(=O)Cc2ccc(F)cc2)CC1 | i
CN(C)c1nn(CC(=O)NC2CCCCC2)cc1-c1ccccc1 | i
Cc1cccc(NC(=O)Cn2ccn(-c3cccc(Cl)c3)c(=O)c2=O)c1 | i
O=C(Cn1c(=O)oc2ccccc21)Nc1ccc(-n2nnn(CC(=O)NC3CC3)c2=O)cc1 | i
O=C(Nc1ccccc1C(F)(F)F)N1CCC(c2ccccc2)C1 (centres undefined) | i
CCc1nnc2ccc(S(=O)(=O)N(Cc3cccc(OC)c3)c3ccc(F)cc3)cn12 | i
COc1ccc(OC)c(-n2nnc(-c3nc(-c4cc(C)ccc4C)cs3)c2N)c1 | i
COC(=O)c1ccc(NC(=O)Cn2cc(-c3ccccc3)c(N3CCSCC3)n2)cc1 | i
O=C(NCC1(O)CCOc2ccccc21)C(=O)Nc1cccc(N2CCCC2=O)c1 (centres undefined) | i
O=C(N1CCN(c2ccc(-c3ccccn3)nn2)CC1)C1(c2cccs2)CCCC1 | i
Cc1ccc(N2CN(CC(=O)Nc3cccc(C#N)c3)S(=O)(=O)c3cccnc32)cc1 | i
CC(=O)N1CCC2(CCc3ccccc3O2)CC1 | i
CCOc1ccccc1NC(=O)Cn1nc2c(-c3nc(-c4ccc(C)cc4)no3)cccn2c1=O | i
CC1(C)Oc2ccc3ccc(=O)oc3c2[C@@H](O)[C@H]1O[C@@H]1O[C@H](CO)[C@@H](O)[C@H](O)[C@H]1O | i
Cc1nc(-c2nnc(NC(=O)C3=COCCO3)o2)cs1 | i
COCCc1nnc(NC(=O)CCSc2ccc(Cl)cc2)o1 | i
CCCN(CCC)C(=O)C(=O)c1c[nH]c2ccccc12 | i
COCCNC(=O)C(=O)Nc1cccc(N2CCCS2(=O)=O)c1 | i
Cc1cc(N(C)C)n2nc(C(F)(F)F)c(-c3ccccc3)c2n1 | i
Cc1ccc(-n2nnc(C(=O)Nc3ccc4oc(=O)ccc4c3)c2C)cc1C | i
CN(CC#CCNC(=O)Cc1ccccc1)Cc1ccccc1 | i
O=S(=O)(c1ccc(F)cc1)c1nc(-c2ccc(F)cc2)oc1N1CCOCC1 | i
O=C(NCc1ccccc1Cl)c1cn(-c2cc(N3CCCCC3)ncn2)cn1 | i
COCCNC(=O)C(=O)NCC(c1cccn1C)N1CCc2ccccc2C1 (centres undefined) | i
COc1ccc(S(=O)(=O)N(C)c2ccsc2C(=O)NCc2ccco2)cc1 | i
CCOCCCN1COc2ccc3c(=O)c(Oc4ccccc4OCC)coc3c2C1 | i
Cc1nc(-n2cccc2)sc1C(=O)Nc1ccc2c(c1)CCC(=O)N2 | i
Cc1ccccc1Oc1nccn2c(=O)n(CC(=O)Nc3cc(Cl)ccc3Cl)nc12 | i
O=C(NCCC(O)c1ccc2c(c1)OCO2)C(=O)Nc1cccc(C(F)(F)F)c1 (centres undefined) | i
O=C(CSc1ncccc1-c1nc(C2CC2)no1)Nc1ccccc1Cl | i
CCc1noc(-c2cc(=O)n(CC(=O)NCc3ccc4c(c3)OCO4)c3ccccc23)n1 | i
COc1ccc(CC(=O)Nc2cnc(-n3nc(C)cc3C)nc2)cc1 | i
CCOC(=O)C1CCN(c2nc3ccccn3c(=O)c2C=O)CC1 | i
O=C(CCc1ccccc1)N1CCN(Cc2nc3ccccc3[nH]2)CC1 | i
N#Cc1nc(-c2ccc(S(=O)(=O)N3CCCCC3)cc2)oc1NCc1ccccc1Cl | i
COc1ccc(OC)c(-c2cc(C(=O)N3CCC(c4nnc(C5CC5)o4)CC3)n(C)n2)c1 | i
Cc1cccc(N2C(=S)NC3CC2(C)Oc2ccc(F)cc23)c1 (centres undefined) | i
CCOC(=O)N1CCC(=C2c3ccc(Cl)cc3CCc3cccnc32)CC1 | i
Cc1nc(-c2ccccc2Cl)sc1CNC(=O)Cn1cccc1 | i
Cc1nc2cc(NC(=O)c3ccc(-n4ccnc4)nn3)ccc2s1 | i
O=C(Nc1nc2ccccc2[nH]1)C1CCN(c2ccc(-c3ccco3)nn2)CC1 | i
O=C(c1cccnc1)N1CCC(c2nnc(-c3ccoc3)o2)CC1 | i
CCOc1ccc(C(=O)Nc2ccc3c(c2)N(C(=O)C(C)C)CCC3)cc1OCC | i
N#CCN1N=C(c2ccccc2)c2ccccc2S1(=O)=O | i
O=C(Cn1cnc2ccccc21)N1CCN(CC(O)C2CC2)CC1 (centres undefined) | i
O=C(NCCN1CCN(C(=O)Cn2ccc3ccccc32)CC1)c1cccs1 | i
CCOc1nn(CC)cc1C(=O)Nc1nnc(SCC(=O)N2CCOCC2)s1 | i
Cc1csc(CN2CCN(C(=O)C(C)Oc3ccccc3)CC2)n1 (centres undefined) | i
CCc1ccc(C(=O)N2CCN(c3cc(Nc4ccccn4)ncn3)CC2)cc1 | i

New compounds follow.
structure | GIRK2 act
Cc1ccccc1Cn1c(=O)c2c(nc3n(-c4ccccc4N)c(C)cn23)n(C)c1=O | i
CCOc1ccc(C(=O)N2CCN(CCn3ccnc3-c3ccccc3)CC2)cc1 | i
COc1ccc2sc(N3CC(C(=O)NC4CCSC4=O)C3)nc2c1 (centres undefined) | i
Cn1ccnc1SCC1CCN(S(=O)(=O)c2cccc(Cl)c2)CC1 | i
COc1cccc(-c2noc(-c3nn(-c4ccc(C)cc4)ccc3=O)n2)c1OC | i
CC(=O)Nc1ccc(S(=O)(=O)NCC2CCN(c3cnccn3)CC2)c(C)c1 | i
CS(=O)(=O)N1CCN(C(=O)c2coc(NC(=O)C3CC3)n2)CC1 | i
COc1ccc(CCNC(=O)c2cc3n(n2)CCCO3)cc1OC | i
Cc1ccc(C)c2sc(OC3CCN(C(=O)c4ccc(S(C)(=O)=O)cc4)CC3)nc12 | i
COc1cccc(NC(=O)Cn2cnc3c(-c4ccc(Cl)cc4)csc3c2=O)c1 | i
COc1cccc(NC(=O)COc2cc(C)nc(N3CCCCCC3)n2)c1 | i
Cc1csc(NC(=O)CN2CC(c3nc(C)no3)C2)n1 | i
Cn1c(-c2ccncc2)c(-c2ccc(F)cc2)c2ncccc21 | i
COc1ccc2cc([C@H](C)C(=O)NCc3ccc(C(F)(F)F)cc3)ccc2c1 | i
O=C(Nc1cccc(Br)c1)c1nc(-c2cn(Cc3ccc(F)cc3)nn2)no1 | i
CN(CC(=O)N1CCc2ccccc2C1)c1nc2c(C(F)(F)F)cccc2s1 | i
Cc1cc(OCC(=O)Nc2cccc(Cl)c2)nc(N2CCN(c3ccccc3)CC2)n1 | i
CCOc1ccccc1CN1C(=O)C2(SC(NC(C)=O)=NN2C(C)=O)c2cc(Cl)ccc21 (centres undefined) | i
COc1cccc2sc(N(C)CC(=O)N3CCN(c4ccccc4F)CC3)nc12 | i
CN(C)S(=O)(=O)N1CCC(c2nc3ccccc3[nH]2)CC1 | i
Cc1cc(C(=O)Nc2nc3c(s2)CN(C(=O)Cn2c(=O)oc4ccccc42)CC3)no1 | i
CCS(=O)(=O)Nc1cccc(C2=NN(C(=O)c3ccc(Br)o3)C(c3ccco3)C2)c1 (centres undefined) | i
O=C(c1ccco1)N1N=C(c2ccc[nH]2)CC1c1cccc2nccnc12 (centres undefined) | i
COc1ccc(CCNC(=O)Cn2nnc(C(=O)NCc3ccc(F)cc3)c2N)cc1OC | i

Part of the list above, with the structure last.
GIRK2 act | SMILES
i | CCc1ccc(C(=O)N2CCN(c3cc(Nc4ccccn4)ncn3)CC2)cc1
i | Cc1cc(OCC(=O)Nc2cccc(Cl)c2)nc(N2CCN(c3ccccc3)CC2)n1
i | CC(C(=O)Nc1ccccc1C(N)=O)n1nc(-c2ccccc2)ccc1=O (centres undefined)

New compounds follow.
structure | GIRK2 act
COc1ccc(C(=O)N(CCCn2ccnc2)c2nc3ccc(C)cc3s2)cc1OC | i
O=C(NCCNc1ccc(-n2cccc2)nn1)Nc1ccccc1 | i
Cc1noc(-c2ccc(=O)n(Cc3nc(-c4ccccn4)no3)c2)n1 | i
CCc1cccc(NC(=O)Cn2c(C)cc(C)c(-c3nc(-c4ccc(OC)cc4)no3)c2=O)c1 | i
COc1ccccc1C1(CNC(=O)c2cnoc2C)CCOCC1 | i
COc1cccc(C(=O)N2CCC(Oc3ccc(Cl)cn3)CC2)c1 | i
O=C(NCC(O)c1ccc2c(c1)CCO2)C(=O)Nc1ccc2c(c1)CCCN2C(=O)c1cccs1 (centres undefined) | i
